Screening data (PubChem BioAssay)
RE007 growth inh: less growth of the S. pombe RE007 Vpr strain; 360,000 compounds, 0.21% hits; AID 651644; Potency, µM (doses to about 92.2 µM), without a hit: at the highest dose activity change, negative = less growth; S. pombe RE007 Vpr strain, BacTiter-Glo ATP luminescence, 24 h; control for the full effect not named in the record; active = well fitted falling curve with a large enough effect; inconclusive = small, poorly fitted or top-dose-only effect; inactive = no such curve, though single readings can be large or run the other way;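 also: % is scaled to controls: 0 for no effect and ±100 for the full control effect; nearly all actives have a fitted effect of over 50% in size; the assay follows cell death caused by Vpr and the record does not say whether a fall means rescue or toxicity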
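Fission yeast RE007 carrying one integrated HIV-1 vpr copy, seeded at OD 0.01 in PMG+AL medium with 23 nL pinned compound. Grown 24 h at 30 degrees; viability read by BacTiter-Glo luminescence after 5 min.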
SARS PLpro yeast: blocks SARS-CoV papain-like protease in a yeast assay; S. cerevisiae expressing SARS-CoV PLpro, growth rescue; control for the full effect not named in the record; Potency, µM (doses to about 32.9 µM), inactives show top-dose activity, positive = growth rescue; 330,000 compounds, 0.19% hits; AID 485353; active means well fitted rising curve with a large enough effect; inconclusive means small, poorly fitted or top-dose-only effect; inactive means no such curve, though single readings can be large or run the other way; also: 0% is about no effect; nearly all actives have a fitted effect of over 55% in size; growth read by luminescence after 48 h
2A StopGo: FMDV 2A StopGo reporter, luciferase signal; human cells with a luciferase reporter of 2A StopGo recoding; control for the full effect not named in the record; 410,000 compounds, 1.2% hits; Potency, µM (titrated, usually from 57.9 µM), without a hit: at the top dose signal change, negative = less light; active = well fitted falling curve with a large enough effect; inconclusive = small, poorly fitted or top-dose-only effect; inactive = no such curve, though single readings can be large or run the other way; tested in HEK293T cells; also: % is scaled to controls: 0 for no effect and ±100 for the full control effect; nearly all actives have a fitted effect of over 45% in size; luciferase light after 4 h
* hit, by the source's call; ? = inconclusive; & = joins results of further samples; [ ] = another dose, or the depositor's remark. Potency is read from the fitted curve at half-maximal effect. A portion of the library; the hit share may differ from the screen's.

SMILES	RE007 growth inh	SARS PLpro yeast	2A StopGo
Cc1cc(C(=O)COC(=O)c2cccn2C)c(C)n1Cc1ccco1	-5%	-4%	?
Cc1c(NC(=O)Nc2cccs2)cccc1[N+](=O)[O-]	-20%	0%	15%
Cc1cc(C(=O)Nc2cccc3c2O[C@@H](CN(C)S(=O)(=O)c2ccccc2)[C@H](C)CN([C@@H](C)CO)C3=O)n(C)n1	1%	8%	-12%
COc1ccc(OC)c(C(=O)COC(=O)c2cccnc2Cl)c1	-3%	0%	3%
Cc1ccc(S(=O)(=O)N2C[C@@H]3CCCC[C@@H]3[C@@H](C)[C@H]2c2cn(Cc3ccccc3)c3ccccc23)cc1	-3%	4%	0%
CCOC(CCn1c(SCC(=O)Nc2cc(C)on2)nc2ccccc2c1=O)OCC	9%	1%	-4%
COC(=O)C1=C(c2cccc(C#N)c2)C[C@@H]2CC[C@H]1N2C(=O)NCCCOC(C)C	6%	1%	-2%
CC[C@H](C)[C@H](NC(N)=O)C(=O)Nc1ccc(OC)c(Cl)c1	-13%	-1%	-11%
Cc1noc(C)c1NC(=O)N(C)C[C@H]1Oc2ccc(NC(=O)NC(C)C)cc2C(=O)N([C@H](C)CO)C[C@@H]1C	-9%	0%	-20%
COc1ccc(NC(=O)N(C)C[C@H]2Oc3c(NS(=O)(=O)c4ccc(OC)cc4)cccc3C(=O)N([C@H](C)CO)C[C@@H]2C)cc1	3%	-6%	38%[activator]

Overlap with the part before: 4 compounds, followed by the next part.
SMILES	RE007 growth inh	SARS PLpro yeast	2A StopGo
COC(=O)C1=C(c2cccc(C#N)c2)C[C@@H]2CC[C@H]1N2C(=O)NCCCOC(C)C	6%	1%	-2%
CC[C@H](C)[C@H](NC(N)=O)C(=O)Nc1ccc(OC)c(Cl)c1	-13%	-1%	-11%
Cc1noc(C)c1NC(=O)N(C)C[C@H]1Oc2ccc(NC(=O)NC(C)C)cc2C(=O)N([C@H](C)CO)C[C@@H]1C	-9%	0%	-20%
COc1ccc(NC(=O)N(C)C[C@H]2Oc3c(NS(=O)(=O)c4ccc(OC)cc4)cccc3C(=O)N([C@H](C)CO)C[C@@H]2C)cc1	3%	-6%	38%[activator]
CC(C)(C)N(Cc1ccccc1)C(=O)COC(=O)c1ccc(Br)o1	6%	2%	-12%
CC(=O)c1cccc(OCC(=O)N2CCN(c3ccc(C(F)(F)F)cn3)CC2)c1	-18%	-3%	?
CC(C)N(Cc1ccccc1)C(=O)COC(=O)CCC(=O)c1ccc(F)cc1	8%	-7%	-7%
COc1cc(C(=O)OCC(=O)NC2CCCCCC2)ccc1OCC(C)C	2%	-1%	?
CCn1cnc2c([N+](=O)[O-])c(NS(=O)(=O)c3ccc(C)cc3)ccc21	15%	27%	-12%
O=c1oc(CCO)cc2ccccc12	-3%	-2%	-10%
CC(=O)N1CCC2(CC1)CC(=O)c1cc(OCC(=O)N3CCC4(CC3)OCCO4)ccc1O2	4%	-2%	0%
O=C(CNS(=O)(=O)c1ccc(Br)cc1Cl)OCC(=O)N1CCCC1=O	2%	10%	1%
COc1ccc(NC(=O)CN(C)C(=O)c2cccc(Oc3ccccc3)c2)cc1	1%	-11%	-16%
O=C(NCc1ccccc1CN1CCCC1)c1cc2ccccc2o1	-13%	-1%	0%

Quoted from the listing:
Under RE007 growth inh, O=C(NCc1ccccc1CN1CCCC1)c1cc2ccccc2o1 reads -13%
Under SARS PLpro yeast, CC(=O)c1cccc(OCC(=O)N2CCN(c3ccc(C(F)(F)F)cn3)CC2)c1 reads -3%
Under SARS PLpro yeast, COc1ccc(NC(=O)CN(C)C(=O)c2cccc(Oc3ccccc3)c2)cc1 reads -11%

Going on with the list:
SMILES	RE007 growth inh	SARS PLpro yeast	2A StopGo
Cc1cc(C)n(C(C)Sc2ccccc2)n1 (stereo not drawn)	-18%	-14%	-19%
O=C(CN(c1ccccn1)S(=O)(=O)c1ccccc1)Nc1ccccc1	6%	-3%	10%
COc1ccc(S(=O)(=O)N2CCCCCC2)cc1NC(=O)CN(C)Cc1ccc2c(c1)OCO2	3%	0%	-15%
Cc1ccc(NC2c3ncccc3C(=O)N2Cc2cccs2)cc1C (stereo not drawn)	-4%	-1%	-11%
O=C(NCCOc1ccccc1)c1ccc2n[nH]nc2c1	16%	-1%	44%[activator]
Cc1cccc(NC(=O)CCC(=O)N2CCOCC2)n1	-1%	6%	-1%
COc1cccc(CN(C)C(=O)CCC(=O)c2cc(Br)ccc2OC)c1	-8%	5%	-20%
COc1ccc(/C=N/N2C(=O)CSC2=S)cc1Br	3%	0%	18%
NC(=O)C1CC(=O)N(c2ccc(OCC(=O)Nc3ccc(F)cc3)cc2)C1 (stereo not drawn)	-6%	2%	7%
O=C(COC(=O)CNS(=O)(=O)c1c(F)cccc1F)NC(=O)NC1CCCCC1	4%	7%	-10%
CCOc1ccc(NC(=O)CN(C)C(=O)Cn2c(=O)cnc3ccccc32)cc1OCC	3%	4%	3%
CN(C)S(=O)(=O)c1ccc(N=Cc2c(C(F)(F)F)[nH]n(C)c2=O)cc1	1%	3%	-3%
C#CCOCCOCCOCCNc1nc(N2CCN(C(=O)C([C@@H](C)O)n3cc([C@@H](N)CCCCN)nn3)CC2)nc(N2CCN(C(=O)[C@H](CCCCN)n3cc([C@@H](N)CC(N)=O)nn3)CC2)n1 (stereo partly drawn)	-14%	0%	-8%
CNc1snc(C)c1C(=O)OC(C)C(=O)Nc1cccc(OC)c1 (stereo not drawn)	-2%	-5%	?
CC(C)(C)CNC(=O)c1cccc2c1C(=O)c1ccc(-c3cc4ccccc4o3)cc1S2(=O)=O	4%	-6%	-15%
Cc1ccc(NC(=O)CCCOc2ccccc2)cc1S(=O)(=O)N1CCOCC1	-1%	4%	-21%
CCC(C)N(C(=O)COC(=O)CNC(=O)c1ccccc1F)C1CCS(=O)(=O)C1 (stereo not drawn)	-17%	2%	13%
CCC(C(=O)NC(C)(C)C)N(C(=O)Cn1nnc(-c2ccccc2F)n1)c1cnc2ccccc2c1 (stereo not drawn)	13%	3%	9%
O=C(Cn1cnc2c(OCc3ccccc3)ncnc21)NCCc1c[nH]c2ccccc12	-8%	2%	-13%
CCN(C[C@H]1N[C@@](C)(C(=O)OC)[C@H]2C(=O)N(C)C(=O)[C@@H]12)C(=O)C1CCCCC1	0%	3%	-2%
CCC(=O)NC(=S)NNC(=O)c1ccccc1[N+](=O)[O-]	-10%	?	-5%
COC(=O)C1=C(c2ccc(F)cc2F)C[C@@H]2CC[C@H]1N2C	-8%	1%	-8%
CC(=O)Nc1ccc(C(=O)N2CCN(S(=O)(=O)c3ccc4c(c3)OCCCO4)CC2)cc1	-1%	-4%	-9%
COc1ccc([C@H]2CC(=O)C=C(c3cccc(C(C)C)c3)C2)cc1	-4%	-1%	5%
CC(C)CN(C(=O)CSc1nc2ccccc2c(=O)n1C)C1CCS(=O)(=O)C1 (stereo not drawn)	7%	?	-10%
CCOc1ccc(N2C(=O)C3CCCN3C2=S)cc1 (stereo not drawn)	2%	-2%	-11%
Cc1nc2cc(-c3ccccc3)nn2c(N)c1-c1ccccc1	-2%	-5%	-18%
C/C(=N/NC(=O)c1cc(O)c(O)c(O)c1)c1ccc([N+](=O)[O-])cc1	-4%	0%	-4%
Cc1cnc(NC(=O)Nc2ccc(Cl)cc2)s1	-11%	-5%	31%[activator]
COc1ccc(/C=c2\sc3nc(=O)c(C)nn3c2=O)c(OC)c1	4%	1%	2%

Entries of single compounds, quoted from the list.
Profile of `CC(C)CN(C(=O)CSc1nc2ccccc2c(=O)n1C)C1CCS(=O)(=O)C1` (stereo not drawn) → RE007 growth inh: 7%; SARS PLpro yeast: ?; 2A StopGo: -10%
Profile of `COC(=O)C1=C(c2ccc(F)cc2F)C[C@@H]2CC[C@H]1N2C` → RE007 growth inh: -8%; SARS PLpro yeast: 1%; 2A StopGo: -8%

(listing goes on)
SMILES	RE007 growth inh	SARS PLpro yeast	2A StopGo
Cc1c(Cl)c([N+](=O)[O-])nn1CCCC(=O)NCCc1ccccc1	1%	0%	53%[activator]
Cc1cc(S(=O)(=O)NCCCN2CCOCC2)ccc1Br	-12%	-1%	-6%
Cc1ccc(S(=O)(=O)N2CCN(C(=O)COC(=O)C3(C)CC3(Cl)Cl)CC2)c(C)c1 (stereo not drawn)	1%	8%	?
COC(=O)c1cc2ccc(OC)cc2c2cc(OC)c(OC)cc12	-2%	0%	?
CC(C)CN(CCCNC(=O)CN1C(=O)COc2ccc(S(=O)(=O)N3CCCC3)cc21)CC(C)C	-15%	-2%	-25%
CC(NC(=O)C1CCCN1C(=O)OCc1ccccc1)c1ccccc1 (stereo not drawn)	1%	-1%	6%
O=C(NCc1ccccn1)C(=O)C1C(=O)Nc2ccccc21 (stereo not drawn)	-6%	0%	-11%
Cc1cccc(C)c1NC(=O)COC(=O)CCc1c[nH]c2ccccc12	-2%	6%	0%
NCCCCCc1cn([C@@H](CCC(=O)O)C(=O)NCCCCCCCCCCC(=O)N2CCNCC2)nn1	12%	-4%	6%
CC1(C)NC(=O)N(CCOCCOc2ccccc2-c2ccccc2)C1=O	-11%	1%	-7%
O=C(N/N=C/c1ccccn1)c1ccc(N/N=C/c2ccccn2)cc1	9%	-1%	12%
CCOCc1c(C(=O)OCC(=O)Nc2ccccc2C(N)=O)oc2ccccc12	12%	-2%	-29%
CCCCn1c(N)c(N(CCC)C(=O)C2CCCC2)c(=O)[nH]c1=O	20%	2%	-7%
CC1(C#N)c2ccccc2C(Br)=CN1C(=O)c1ccccc1 (stereo not drawn)	3%	9%	-26%
CCOC(=O)C1=C(CC)Nc2ccccc2N/C1=N\S(=O)(=O)c1ccccc1OC	-1%	-2%	-16%
C[C@@H]1CN([C@H](C)CO)C(=O)c2cc(NC(=O)Nc3ccc(C(F)(F)F)cc3)ccc2O[C@H]1CN(C)S(=O)(=O)c1ccccc1	13%	-11%	?
O=C(Nc1nnc(C2CC2)s1)C1CCCCC1	0%	-1%	46%[activator]
Cc1cnc(C(=O)OCC(=O)Nc2ncc(Cl)cc2Cl)cn1	1%	-3%	-25%
C=CC[C@@H](CC(=O)N(CCO)Cc1ccccc1)C(=O)N[C@H](COC(=O)[C@H](CC=C)CC(=O)OC(C)(C)C)Cc1c[nH]c2ccccc12	-14%	1%	-6%
Cc1ccc(NC(=O)CSc2nnnn2C2CCCC2)cc1S(=O)(=O)N1CCOCC1	-9%	2%	0%
O=C(OCC(=O)c1ccc[nH]1)C1=COCCO1	-4%	3%	10%
Cc1ccc(OC(=O)c2ccc(C)c([N+](=O)[O-])c2)cn1	-11%	-1%	-2%
O=C(COC(=O)c1cccc(S(=O)(=O)N2CCCCCC2)c1)Nc1ccccc1C(F)(F)F	2%	0%	-13%
CN(CC(=O)N1CCN(c2ccc(F)cc2)CC1)S(=O)(=O)c1ccc2c(c1)c(=O)n(C)c(=O)n2C	19%	-4%	-26%
Cc1ccsc1/C=C(\C#N)C(=O)NCCCN1CCOCC1	5%	1%	7%
O=C(O)c1ccc(NC2OC[C@@H](O)[C@H](O)[C@H]2O)cc1 (stereo partly drawn)	1%[18.4 µM]	-6%	-22%&-2%
CCC(CO)Oc1cc(NC(=O)c2cccc(Cl)c2)c2ncn(C(C)C)c2c1 (stereo not drawn)	4%	-10%	-22%
Cc1ccc(C)c(C(=O)CCC(=O)Nc2ccc(N3CCN(C)CC3)cc2C)c1	17%	-3%	8%
COc1ccccc1CN(C)c1nnnn1-c1ccccc1	13%	-1%	-3%
O=C(CSc1nnc(SCc2ccc(Cl)cc2)s1)N/N=C/c1ccc(Cl)cc1Cl	10%	-3%	8%
CC1CN(S(=O)(=O)c2cccc(C(=O)OCC(=O)NCc3ccccc3)c2)CC(C)O1 (stereo not drawn)	1%	0%	4%
CC(C)(C)OC(=O)NCCCC[C@@H](C(=O)NCCCCCCCCCCC(=O)N1CCN(C(=O)OC(C)(C)C)CC1)n1cc(CCO)nn1	3%	6%	14µM*
CC1(c2ccc(Cl)cc2)NC(=O)N(CC(=O)NCCC2=CCCCC2)C1=O (stereo not drawn)	3%	3%	-5%
NC(=S)N/N=C/c1ccc(-c2ccccc2)o1	-21%	?	0%
CCc1ccc(S(=O)(=O)NCCc2cn3cccc(C)c3n2)s1	-8%	1%	15%
COc1cccc(CN(C)C(=O)CCNC(=O)c2ccco2)c1	-11%	3%	-7%
